High-throughput results from PubChem BioAssay.
TRPV1 potentiator: enhances activation of the human vanilloid receptor TRPV1 | Q8NER1 | TRPV1-expressing cells, Fluo-8 calcium influx, capsaicin EC20 potentiation; host cell line not named in the record; control for the full effect not named in the record | potentiation, % at 8.33 µM | 320,000 tested, 0.02% active; active means potentiation above 80%; inconclusive means 30% to 80%; inactive means below 30%; further: 0% is about no effect
Target sequence (Q8NER1 whole entry, looked up): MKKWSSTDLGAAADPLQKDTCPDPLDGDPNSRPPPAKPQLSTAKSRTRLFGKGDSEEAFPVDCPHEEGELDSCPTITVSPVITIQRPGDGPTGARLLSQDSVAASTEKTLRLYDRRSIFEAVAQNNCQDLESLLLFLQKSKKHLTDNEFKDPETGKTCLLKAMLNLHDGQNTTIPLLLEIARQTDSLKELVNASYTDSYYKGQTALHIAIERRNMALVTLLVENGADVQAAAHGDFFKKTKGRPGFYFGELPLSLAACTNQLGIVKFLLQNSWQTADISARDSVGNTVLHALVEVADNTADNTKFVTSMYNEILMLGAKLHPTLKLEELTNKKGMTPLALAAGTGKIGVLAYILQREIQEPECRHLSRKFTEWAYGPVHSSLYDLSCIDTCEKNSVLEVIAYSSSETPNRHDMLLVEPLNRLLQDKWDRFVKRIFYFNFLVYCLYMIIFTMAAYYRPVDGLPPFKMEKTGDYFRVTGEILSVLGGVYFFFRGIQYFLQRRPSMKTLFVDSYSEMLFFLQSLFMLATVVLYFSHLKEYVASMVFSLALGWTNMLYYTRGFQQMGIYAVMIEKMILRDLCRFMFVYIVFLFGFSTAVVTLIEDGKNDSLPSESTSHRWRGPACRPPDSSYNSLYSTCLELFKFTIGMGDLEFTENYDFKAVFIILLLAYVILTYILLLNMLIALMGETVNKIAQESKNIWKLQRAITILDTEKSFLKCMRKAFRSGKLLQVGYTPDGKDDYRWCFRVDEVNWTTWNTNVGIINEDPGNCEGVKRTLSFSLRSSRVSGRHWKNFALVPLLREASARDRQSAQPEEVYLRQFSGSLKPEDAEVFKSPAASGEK
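Cells expressing TRPV1 were dye-loaded with Fluo-8 and read kinetically: 10 s baseline, 3 min after compound (agonist portion), then 2 min after EC20 capsaicin (allosteric enhancer portion). Calcium-bound dye fluorescence at 480/520 nm.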
Menin MLL FP FL: menin-MLL binding inhibition, fluorescein peptide. Fluorescence polarization, fluorescein-MLL peptide displacement from menin. FP activity change, % at 61.4 µM. 290,000 tested, under 10 active; inconclusive = falling polarisation curve, or a change in total fluorescence; inactive = total fluorescence flat and polarisation flat or rising; no compound was filed as active; the % refers to the polarisation; negative = inhibition;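 further: % of control where 0% means no effect; inhibitors lower the polarisation; unlabelled MLL peptide was the positive control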
TRPML1 inh: inhibitors of human TRPML1 channel. TRPML1-inducible cells, Ca2+ dye fluorescence, FDSS; stronger effect = lower value; inhibition of EC80 agonist-evoked calcium signal. activity change, negative = inhibition, % (concentration not given with the values). 390,000 tested, 0.02% active. AID 624415; in the data active means activity change below about -50%; inconclusive means about -30% to -50%; inactive means above about -30%;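 further: stimulus is agonist 54-4 at its EC80 concentration; on the % scale 0 is the no-effect control and ±100 the full control effect; compound concentration not given in the record; the text of the record puts the active cut at -80%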
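Tet-induced TRPML1-DL cells loaded with Ca8 no-wash calcium dye were read kinetically on FDSS. Compound addition was followed by EC80 agonist 54-4 (4 uM final); inhibition was read over 110 s.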
gsp antag: antagonizes gsp, the McCune-Albright syndrome mutation; Potency, µM (top dose mostly 76.9 µM), for inactives: at the highest dose activity change, negative = inhibition, most hits filed as inhibitors; 340,000 tested, 0.4% active; AID 624288; gsp-mutant cells, cAMP HTRF, 30 min; control for the full effect not named in the record; active = falling curve of any shape with a large fitted effect; inconclusive = falling curve, mostly with a smaller effect; inactive = flat or rising curve; cell line not stated here;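 further: intracellular cAMP measured with PDE inhibitor Ro 20-1724 present during compound exposure; potency means the concentration at half of the fitted maximal effect; on the % scale 0 is the no-effect control and ±100 the full control effect; nearly all actives have a fitted effect of over 65% in size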
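HTRF cAMP measurement after 30 min RT detection following 30 min, 37C compound treatment alongside […] (added as 300 uM solution) in G418-selected cells seeded at 2000/well and grown 16–24 h.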
ClpP mod: qHTS Assay for Activators of ClpP | ATP-dependent Clp protease proteolytic subunit (Bacillus subtilis (strain 168)), P80244 | purified B. subtilis ClpP, FRET peptide cleavage, 20 min | Potency, µM (titrated, usually from 57.5 µM), inactives show at the highest dose activity change, negative = active | 340,000 tested, 1.9% active | AID 651965, 2013; active = well fitted falling curve with a large enough effect; inconclusive = small, poorly fitted or top-dose-only effect; inactive = no such curve, though single readings can be large or run the other way; further: potency means the concentration at half of the fitted maximal effect; the source files actives as falling curves though it sought activators and does not explain the sign; nearly all actives have a fitted effect of over 65% in size; many hits overshoot -100%
Target sequence (P80244 whole entry, looked up): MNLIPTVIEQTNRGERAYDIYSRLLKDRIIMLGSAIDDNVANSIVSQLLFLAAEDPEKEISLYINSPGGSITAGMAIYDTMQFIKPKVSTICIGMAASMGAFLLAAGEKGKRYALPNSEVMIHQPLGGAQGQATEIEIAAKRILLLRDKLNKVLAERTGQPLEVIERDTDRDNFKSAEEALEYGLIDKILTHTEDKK
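FRET quenching reversal measured ClpP activation: 10 microg/mL B. subtilis ClpP at pH 8 with the FRET-FV decapeptide, read at 430 nm after 320 nm excitation. The 20-min minus 0-min signal was scaled between DMSO/no-enzyme wells and ADEP (5.8 microM final).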
Sfp inh: inhibitors of Bacillus subtilis Sfp phosphopantetheinyl transferase; Biochemical Sfp PPTase activity, qHTS; 310,000 tested, 3.5% active; Potency, µM, for the others: max response, negative = inhibition, usual class: inhibitors; Q9F4F7; active means well fitted inhibition curve with a large enough effect; inconclusive means small, poorly fitted or top-dose-only effect, or another doubt; inactive means no such curve, though single readings can be large or run the other way;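 further: the enzyme is Sfp with the accession as filed and its product quenches rhodamine fluorescence; potency means the concentration at half of the fitted maximal effect; 0% = enzyme reaction without inhibitor and -100% = no enzyme wells; top concentration of the series not given in the record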
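Fluorescence-quenching assay with 15 nM Sfp, 5 uM rhodamine-CoA and 12.5 uM BHQ-2-labelled ybbR peptide in pH 7.6 Hepes/MgCl2 buffer. Enzyme was pre-incubated with compound for 15 min at room temperature. Rate was taken from the 30-min fluorescence change (525/598 nm).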
gsp ag: agonists of gsp mutant (McCune-Albright syndrome); gsp mutant cells, cAMP HTRF, 30 min; control for the full effect not named in the record; Potency, µM (titrated, usually from 76.9 µM), inactives show at the top dose activation (cAMP increase), actives largely listed as activators; 340,000 tested, 0.13% active; active = well fitted activation curve with a large enough effect; inconclusive = small, poorly fitted or top-dose-only effect, or another doubt; inactive = no such curve, though single readings can be large or run the other way; cell line not stated here;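 further: phosphodiesterase inhibitor Ro 20-1724 added with compounds to block cAMP breakdown; potency means the concentration at half of the fitted maximal effect; nearly all actives have a fitted effect of over 60% in size; about a fifth of the inactives were tested at one dose only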
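Cells stably selected in G418 were plated at 2000/well, grown 16-24 hr, then given compounds in DMSO with the PDE inhibitor […] (300 uM solution added) for 30 min at 37C; cAMP was read by HTRF.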
An asterisk follows results filed as active; ? = inconclusive; . = no result given; & = joins results of further samples; [ ] = another dose, or the depositor's remark.

SMILES	TRPV1 potentiator	Menin MLL FP FL	TRPML1 inh	gsp antag	ClpP mod	Sfp inh	gsp ag
Cc1sc2nc(CN3CCOCC3)nc(NS(=O)(=O)c3ccccc3)c2c1C	12	5.6	5	-4%	-1.2%	-3%	4%
COC(=O)N/N=C\c1ccc(-c2cc(Cl)c(Cl)cc2Cl)o1	-11	2.1	61	-11%	-21%	-4%	13%[15.4 µM]
O=C(NCc1cccnc1)C(=O)Nc1nc2ccccc2s1	25	-1.0	9	-11%	.	2%	1%[15.4 µM]
CCn1cc(C(=O)NCC2COc3ccccc3O2)c2cc(OC)c(OC)cc2c1=O (configuration not stated)	16	2.9	10	16%	-6.1%	-9%	-7%
COc1ccc(CNCCCNCc2ccc(OC)c(OC)c2)cc1OC	.	.	-3	17%	.	.	3%
COc1ccc2ccccc2c1/C=N/n1cnnc1	5	-2.3	-3	-7%	-9.6%	6%	-28%
COc1cccc(CN(C)CC(O)COC(c2ccccc2)c2ccccc2C)c1 (configuration not stated)	0	-3.0	-9	-8%	.	-9%	-23%[15.4 µM]
CC1C(=O)Nc2ccccc2N1C(=O)c1ccc(F)cc1F (configuration not stated)	8	0.4	-11	-4%	2.5%	9%	-2%
CCOC(=O)CNC(=O)CSc1nc2sc(C)c(C)c2c(=O)n1C	7	-0.9	22	-9%	-1.5%	-1%	-18%
NC(=O)c1nsc(C(=O)N(Cc2ccccc2F)C(C(=O)NCC2CCCO2)c2ccc(F)cc2)c1N (configuration not stated)	17	-1.0	5	-10%	.	9%	17%[15.4 µM]
Nc1ccccc1C#CC(=O)c1ccccc1	2	9.3	-5	-1%	-1.1%	-3%	41%
COc1ccc(OCC(=O)Nc2ccc3c(c2)n(C)c(=O)n3C)cc1	-4	0.4	-9	-7%	-1.8%	6%	11%
CC(C)OCCCNc1nc2c(cnn2C)c(=O)[nH]1	.	.	-5	14%	1.3%	.	-2%[15.4 µM]
CCOC(=O)c1[nH]c2cc(OC)c(OC)cc2c1NC(=O)c1ccc2c(c1)OCO2	-23	1.8	-4	3%	65%	13%	21%
CCOC(=O)c1ccc(-c2c(C(=O)OCC)oc3cc(O)c(CC)cc3c2=O)o1	5	6.2	5	?	1.0%	-6%	-33%[inhibitor]
O=C(/C=C/c1ccco1)Nc1sc2c(c1C(=O)O)CCC2	-1	5.6	9	40µM*	-0.5%	50µM*	3%
O=C(NCCNC(=O)c1ccccc1Br)c1cccnc1	-4	-0.4	-3	7%	-7.3%	10%	-4%[15.4 µM]
Cc1ccccc1NC(=O)c1ccc(C)c(S(=O)(=O)NCc2cccnc2)c1	5	.	13	6%	-3.7%	8%	-34%[inhibitor]
O=C(Nc1nnc(-c2ccccc2F)s1)Nc1ccccc1F	1	3.3	-3	7%	.	23%	3%
Cc1cc(C)c2nc(SCC(=O)Nc3ccc(S(=O)(=O)N4CCCC4)cc3)c(C)cc2c1	2	-0.1	6	-8%	1.8%	15%	31%
COc1cc(NC(=O)c2ccccc2-c2ccccc2)cc(OC)c1	5	1.9	58	-16%	-0.8%	-5%	-9%
CC(=O)NCCN1C(=O)C2C3c4ccccc4C(c4ccccc43)C2C1=O (configuration not stated)	5	1.8	-12	0%	0.1%	14%	4%
O=C(OCC(=O)N1CCN(C(=O)c2ccco2)CC1)c1ccc(Cl)nc1	.	.	6	-7%	1.8%	.	13%
C[C@@H]1NC(=O)/C(=C\c2ccccc2Cl)NC1=O	-3	-6.3	21	4%	-1.2%	13%	2%[15.4 µM]
CCN(C(=O)COC(=O)c1nc(Cl)ccc1Cl)c1c(N)n(Cc2ccccc2)c(=O)[nH]c1=O	.	.	26	0%	-2.8%	.	-9%
CCOC(=O)C1CCCN(Cc2cc(=O)oc3cc(C)ccc23)C1 (configuration not stated)	-12	?	13	-28%	.	14%	-2%[15.4 µM]
Cc1cccc(C(=O)Nc2cc(=O)n(C)c(=O)n2C)c1	3	5.8	?	7%	0.3%	7%	?
O=C(C1CCC(=O)N(C2CCCC2)C1)N1CCN(c2ccccc2Cl)CC1 (configuration not stated)	-11	-0.6	0	-1%	-1.8%	0%	14%
CCOC(=O)c1c(-c2cccs2)csc1NC(=O)CNCCN1CCOCC1	8	0.3	.	.	.	-17%	.
Cc1cc(C(=O)Nc2cc(C(C)(C)C)on2)c(C)o1	-16	2.5	0	-5%	1.2%	19%	4%
Cc1sc(C(C2C(=O)CC(C)(C)CC2=O)C2C(=O)CC(C)(C)CC2=O)cc1[N+](=O)[O-]	2	0.1	9	-9%	1.1%	6.3µM*	-5%
O=C1CCC(C(=O)OCC(=O)Nc2ccc(SC(F)F)cc2)=NN1	.	.	6	.	0.8%	.	-43%[inhibitor]
O=C(NCc1nc2ccccc2[nH]1)C1=C[C@@H](c2ccc(Br)cc2)C[C@@H](OCc2ccc(CO)cc2)O1	-4	?	-9	-13%	-5.5%	18%	.
O=C(Nc1ccn(Cc2ccccc2)n1)c1cccc(F)c1	-15	0.9	10	6%	.	4%	4%
CCCCc1c(C)nc2ccc(Br)cc2c1SCCC#N	-11	5.4	.	.	.	1%	.
COc1cc2ccccc2cc1-c1nnc(COc2ccccc2)o1	-6	-0.2	-5	8%	4.4%	-10%	10%
CCCCN1CCC(=O)NC1=O	.	.	0	3%	.	.	11%
O=C(O)c1cc(-c2cc3ccccc3o2)nn1-c1ccccc1	5	0.3	-2	-11%	.	14%	13%
CN1CCCN(C(=O)/C=C/c2ccc(Cl)cc2Cl)CC1	-7	-2.9	-15	9%	-0.1%	?	-2%
CCN(Cc1ccccc1)S(=O)(=O)c1csc(C(N)=O)c1	12	.	-3	8%	-0.8%	2%	-33%

Sorted by value in Sfp inh (falling): 3 from the list above
Molecule	Menin MLL FP FL	TRPML1 inh	Sfp inh	gsp ag
CCOC(=O)C1CCCN(Cc2cc(=O)oc3cc(C)ccc23)C1 (configuration not stated)	?	13	14%	-2%[15.4 µM]
O=C(Nc1ccn(Cc2ccccc2)n1)c1cccc(F)c1	0.9	10	4%	4%
CCN(Cc1ccccc1)S(=O)(=O)c1csc(C(N)=O)c1	.	-3	2%	-33%

Additional compounds.
SMILES	TRPV1 potentiator	Menin MLL FP FL	TRPML1 inh	gsp antag	ClpP mod	Sfp inh	gsp ag
COc1ccccc1Nc1nc(N)nc(CSc2nnc(C)s2)n1	-10	4.3	-15	8%	-2.9%	-23%	4%
CN(Cc1ccccc1)S(=O)(=O)c1ccc(Cl)c(C(=O)OCC(=O)NC2CCS(=O)(=O)C2)c1 (configuration not stated)	.	.	11	-14%	-0.9%	.	1%
CCOC(=O)C1=CC[C@@H](c2ccco2)N(S(=O)(=O)c2ccc(C)cc2)[C@H]1C(=O)OCC	-21	.	0	-16%	0.6%	.	.
CC(C)(C)OC(=O)N1CCC(C(=O)Nc2cccc(C(=O)NCc3ccccc3)c2)CC1	.	.	5	-16%	2.1%	.	.
O=C(CSc1nnnn1C1CCCCC1)NNC(=O)c1ccco1	-4	-0.3	8	2%	-0.4%	7%	-20%
O=C1c2ccccc2NC(c2ccc(-c3cccc(Cl)c3)o2)N1O (configuration not stated)	-5	1.6	17	4%	?	?	-6%
CC1Cc2cc(S(=O)(=O)NCc3ccccc3)ccc2N1C(=O)C1CCC1 (configuration not stated)	11	0.7	-8&-14	5%	-2.0%	2%	-2%
CCn1nnc(-c2ccccc2NC(=O)C(F)(F)F)n1	-3	-0.7	-9	4%	-1.0%	18%	3%
COc1ccc(C(C)=O)cc1COC(=O)c1ccc(S(=O)(=O)N2CCOCC2)cc1	-18	7.1	-7	0%	-1.5%	9%	-1%
O=Cc1c(Sc2ccccc2)nc2ccccn2c1=O	-5	0.0	3	-3%	0.4%	12%	-66%[inhibitor]
CCOC(=O)Nc1ccc([N+](=O)[O-])cc1C	4	-0.9	9	16%	11%	10%	-47%[inhibitor]
CCOC(=O)C[C@H]1c2cc(F)ccc2S(=O)(=O)N1C1CCCCC1	.	.	17	-3%	0.0%&-3.3%	.	-3%
CC1=C(C)CC2C(C1)C(=O)c1ccc(Br)cc1S2(=O)=O (configuration not stated)	-3	.	12	-14%	-1.1%	.	.
c1cc2c(cn1)cnc1cscc12	6	4.3	13	15%	-29%	-8%	-13%
Cc1ccc(OCC(=O)N2CCN(C(=O)c3ccncc3)CC2)cc1	0	-0.6	1	8%	2.2%	10%	?
Cc1[nH]n(-c2ncc(-c3ccccc3)s2)c(=O)c1C(c1ccc(Br)cc1)C(C#N)C#N (configuration not stated)	2	0.7	-7	-6%	22%	56µM*	-10%[15.4 µM]
COc1ccc2[nH]c3nc(SCC(=O)NC4CC4)nnc3c2c1	-3	2.9	-7	2%	.	10%	22%
O=C(CCNS(=O)(=O)c1cccc2nsnc12)NC1CCN(Cc2ccccc2)CC1	-28	-1.7	8	8%	-0.6%	17%	1%
Cc1cccc(NC(=O)CSCC(=O)Nc2cc(Cl)ccc2N2CCOCC2)c1	13	.	-11	-15%	-1.3%	.	25%
CCOc1ccc(/C=C/C(=O)OCC(=O)NCCc2ccc(OCC)c(OCC)c2)cc1OC	7	.	31	-6%	-18%	.	-13%
COCC(C)n1c(C)cc(C(=O)COC(=O)CCc2nc3ccccc3c(=O)[nH]2)c1C (configuration not stated)	4	-0.5	-7	-4%	.	11%	?
CC(=O)c1ccc(-n2nnnc2SCC(=O)NC2CCCCC2)cc1	-8	12	5	-11%	.	?	?
c1ccc(NN(Cc2ccccn2)c2ccccc2)cc1	.	.	10	.	-2.0%	.	?
O=C(NC1CCCCCC1)c1cc(S(=O)(=O)N2CCC3(CC2)OCCO3)ccc1F	-25	2.6	1	-13%	-0.5%	20%	4%
Cc1ccc(Cc2c(C)nc3nc(SCC(=O)NCCCN4CCCCCC4)nn3c2C)cc1	-5	-8.3	5	-6%	-3.8%	-6%	?
CCCc1cc(C(=O)Nc2ccc(C)cc2)no1	.	4.4	10	7%	-5.3%	12%	-34%[inhibitor]
Cc1cccc(NC(=O)CCNS(=O)(=O)c2ccc3[nH]c(=O)oc3c2)c1	8	.	-6	5%	1.9%	20%	8%
O=C(CCSCCC(=O)Nc1c(F)c(F)c(F)c(F)c1F)Nc1c(F)c(F)c(F)c(F)c1F	-6	-4.3	22	-10%	-1.2%	8%	?
